Bioassay records: PubChem BioAssay, several laboratories
Arbovirus inh: blocks arbovirus infection. arbovirus infection cell-based antiviral screen. inhibition, % at 10 µM. 200,000 compounds, 0.37% hits. AID 1251;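 active = inhibition from about 30%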;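 note: bluetongue infection of BSR cells; cell survival read as ATP light after 72 h; 0% = infected wells without compound and 100% = uninfected wells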
RecA intein inh: Mtb RecA intein splicing inhibition | P9WHJ3 | cell-free RecA intein splicing, fluorescence | inhibition, %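 (about 9 µM by stock and volumes)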 | 290,000 compounds, 0.75% hits | AID 2221; in the data active = inhibition above about 30%; inconclusive = no clear call, values can overlap the other calls;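 note: 0% = vehicle wells and 100% = reference inhibitor control wells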
Target sequence (P9WHJ3 whole entry, looked up): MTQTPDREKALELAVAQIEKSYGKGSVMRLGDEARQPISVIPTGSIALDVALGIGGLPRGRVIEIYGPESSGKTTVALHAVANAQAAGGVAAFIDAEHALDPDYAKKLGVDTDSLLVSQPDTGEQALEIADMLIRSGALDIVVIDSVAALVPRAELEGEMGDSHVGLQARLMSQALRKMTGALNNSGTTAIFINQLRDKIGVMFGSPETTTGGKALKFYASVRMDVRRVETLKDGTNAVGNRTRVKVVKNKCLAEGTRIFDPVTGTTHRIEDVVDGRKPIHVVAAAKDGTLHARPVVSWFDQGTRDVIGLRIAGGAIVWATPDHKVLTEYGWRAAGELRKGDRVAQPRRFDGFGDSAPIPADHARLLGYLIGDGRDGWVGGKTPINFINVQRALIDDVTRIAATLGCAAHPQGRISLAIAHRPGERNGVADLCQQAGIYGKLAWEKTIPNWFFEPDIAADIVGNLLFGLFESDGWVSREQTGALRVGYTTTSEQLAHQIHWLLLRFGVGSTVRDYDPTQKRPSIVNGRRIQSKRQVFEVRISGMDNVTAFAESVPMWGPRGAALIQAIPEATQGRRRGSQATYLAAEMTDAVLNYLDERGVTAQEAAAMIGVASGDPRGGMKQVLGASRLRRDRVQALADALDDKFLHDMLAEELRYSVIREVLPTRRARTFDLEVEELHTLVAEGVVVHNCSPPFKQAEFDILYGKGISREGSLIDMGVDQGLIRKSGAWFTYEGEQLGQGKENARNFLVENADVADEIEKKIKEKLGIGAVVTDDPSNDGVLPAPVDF
Mtb betalactam: beta-lactam sensitization of Mtb H37Rv | M. tuberculosis H37Rv growth with meropenem, percent inhibition; hits of this screen are not shown here | inhibition, % at 25 µM | 330,000 compounds, 0.27% hits | AID 434955;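 active = about 74% or more and at least 40 points above the plate without the antibiotic, then above 30% in a dose series; inconclusive = first-round hits that could not be retested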;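 note: growth measured after seven days incubation then overnight dye step; 0% = bacteria only wells and 100% = bacteria with antibiotic; twin plates without the antibiotic show which effects depend on it; some results filed as inactive read as strong as hits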
YopH PTP inh: blocks Yersinia enterocolitica YopH tyrosine phosphatase. 140,000 compounds, 0.16% hits. AID 898. inhibition, %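 (about 10 µM by stock and volumes)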. fluorescence Ex485/Em525;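 active = inhibition of 50% or more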;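 note: controls were vehicle for no effect and minimum signal wells for full effect; inactives centre near -20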
Mtb H37Rv: M. tuberculosis H37Rv growth inhibitors, H37Rv strain (AID 1626). M. tuberculosis H37Rv growth inhibition; higher % means a stronger effect. one-dose inhibition, % at 10 µM; IC50 in µM for titrated hits. 220,000 compounds, 0.95% hits;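 active = confirmed in a dose series; inconclusive = inhibition above 80% but not taken into the dose series; inactive = below 80% or under 30% at every dose of the series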;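 note: bacteria incubated seven days before Alamar blue readout; 0% = bacteria only wells and 100% = bacteria with antibiotic wells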
Arbovirus inh repeat: further read-out of Arbovirus inh, marked with its call; inhibition, %; measured here: 10K subset replicate screen; many hits read low in the repeat;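 first of two repeat runs on a subset; 0% = infected and 100% = uninfected wells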
Numbers without * were called inactive; ? = inconclusive; nt = no result given. This is a subset; the hit share may differ from the screen's.

SMILES	Arbovirus inh	RecA intein inh	Mtb betalactam	YopH PTP inh	Mtb H37Rv	others
Cc1c2cnn(CC(=O)NCCN3CCOCC3)c(=O)c2c(C)n1Cc1ccccc1	nt	-1.1	0	nt	nt
O=C(Cn1cnc([N+](=O)[O-])c1)c1ccc(Cl)cc1	nt	-0.4	-1	nt	nt
O=C(NC(=S)Nc1ccccc1N1CCOCC1)c1cccc([N+](=O)[O-])c1	nt	11	-2	nt	nt
Cc1nn(-c2ccccc2)c(C)c1/C=N/NC(=O)c1cc(-c2ccccc2)n[nH]1	2	9.0	95	-19	48%
CCC(C)(C)n1nnnc1C(c1ccc2ncccc2c1)N1CCCCCC1 (stereo unspecified)	-2	-0.4	1	-10	-7%
CCC1CN(C(=O)N2CCC(C(=O)NCc3ccccc3C)CC2)c2ccccc2O1 (stereo unspecified)	nt	-1.7	-10	nt	nt
O=C(Nc1cccnc1)c1cc(-c2ccc(F)cc2)on1	-7	0.6	1	nt	0%
OCCNCc1ccc(-c2ccccc2)cc1	-4	0.4	2	-9	0%
CCc1nc2oc3ccccc3c(=O)c2cc1C(=O)OC	nt	2.2	-8	nt	nt
CCc1nnc(SCC(=O)N2CCc3ccccc32)n1CC	nt	-1.3	-2	nt	nt
COc1ccccc1NC(=O)COn1nnc2ccc(S(=O)(=O)N3CCOCC3)cc21	4	0.2	-10	nt	4%
Cc1c(Cl)cccc1NC(=O)CCN1CCCCCC1	11	1.6	-6	-22	-5%
O=C1C2C(c3ccccc3)(C(=O)N1c1ccc(Cl)cc1)C2(c1ccccc1)c1ccccc1 (stereo unspecified)	10	2.7	93	-45	22µM*
CCC(=O)N1CCc2cc(S(=O)(=O)NC(C(=O)NC3CCCc4ccccc43)C(C)C)ccc21 (stereo unspecified)	-8	2.6	-2	-5	1%
O=C(CC(c1ccccc1)c1ccccc1)Nc1ccc2c(c1)OCCO2	8	nt	3	5	8%
COc1cc(Cl)c(CN2CCCC(CO)(Cc3ccccc3)C2)cc1OC (stereo unspecified)	nt	-0.2	5	nt	nt
CC12C(=O)N(c3ccc(C(=O)N4CCOCC4)cc3)C(=O)C1C1c3ccccc3C2c2ccccc21 (stereo unspecified)	5	-1.2	4	-33	3%
Cc1nc2cc(OCc3cc(C(=O)NC(C)c4cnn(C)c4)no3)ccc2s1 (stereo unspecified)	nt	-3.0	-13	nt	nt
CN1C[C@@H]2C(c3ccc(Cl)nc3)C3(c4ccccc4)CC2(C3)[C@H]1c1ccccc1 (stereo partly specified)	nt	6.8	-5	nt	3%
CCn1ccnc1CN(C)Cc1cn[nH]c1-c1ccc(F)cc1F	14	-0.3	-1	nt	-7%
CC(=O)N1N=C(c2cccc([N+](=O)[O-])c2)OC1c1ccccc1Cl (stereo unspecified)	-9	0.8	-13	-52	-12%
O=C(NCc1cccc(Cl)c1)c1cnccn1	0	-0.4	?	30	-12%
Cn1cccc1/C=C1\C(=O)NC(=O)N(Cc2ccco2)C1=O	2	-1.7	nt	nt	4%
O=C(OCc1nnc(-c2ccccc2)o1)C1=COCCO1	7	nt	93	3	61%
O=C(N1CCOCC1)N1CCN(S(=O)(=O)c2ccccc2)C1	5	-8.8	?	-38	2%
(cont.)
SMILES	Arbovirus inh	RecA intein inh	Mtb betalactam	YopH PTP inh	Mtb H37Rv	others
Cc1cccc(C(=O)Nc2ccc(O)cc2C(=O)O)c1	-1	-6.2	8	nt	-4%
Cc1ccc2nc(NC(=O)C3CCN(S(=O)(=O)c4ccc5c(c4)oc(=O)n5C)CC3)sc2c1	1	-1.3	-3	-39	2%	Arbovirus inh repeat=-2
O=C(Nc1cccc(NC(=O)c2cccs2)c1)c1ccc2c(c1)OCO2	-23	4.6	-5	nt	-2%
O=C(c1cccc(Cl)c1)N1CCN(Cc2ccccc2)CC1	nt	1.1	2	nt	nt
COc1ccccc1-n1c(C)nnc1SCC(=O)Nc1cccc(C(C)=O)c1	-2	nt	5	-21	4%
CC(=O)Nc1ccc(OC(=O)c2ccc(Br)c([N+](=O)[O-])c2)cc1	-3	16	95	nt	18%
O=C(NCCc1ccc(Cl)cc1Cl)c1ccc2nc[nH]c2c1	nt	1.7	-3	nt	nt
Cc1ccc(S(=O)(=O)NCc2ccc(C(=O)N(C)CCC#N)cc2)cc1	-6	-4.4	-1	-34	4%
CCc1ccc(-n2c(C)nc3cc(C(=O)NCc4cccnc4)ccc32)cc1	-20	3.5	37	nt	-2%
O=C(CS(=O)(=O)c1ccc(F)cc1)NCCS(=O)(=O)c1ccccc1	nt	-0.8	4	nt	nt
COc1ccc(Nc2nc3ccc(C)cc3n3cnnc23)cc1Cl	nt	-0.8	4	nt	nt
CCOC(=O)N1CCN(Cc2nc3c(c(=O)[nH]c(=O)n3C)n2Cc2cc(C)ccc2C)CC1	3	-12	?	7	1%
CCN(CC)c1ccc(/C=N/NC(=O)c2cccc(N3CCCC3=O)c2)cc1	-12	-2.5	-4	nt	-6%
CC(C)[C@H](NC(=O)OC(C)(C)C)C(=O)N/N=C/c1ccc2nccnc2c1	nt	0.1	-4	nt	-5%
O=C(Nc1nc2c(s1)CN(Cc1ccccc1)CC2)c1c(F)cccc1F	17	-20	-4	nt	5%
CC(=O)N1CCN(C(=O)c2ccc(S(=O)(=O)Nc3ccccc3C)cc2)CC1	nt	0.0	-8	nt	nt
COc1ccc(CC(=O)Nc2cc(Cl)ccc2O)cc1	-1	2.3	-1	-18	11%
COCCN(C(=O)C(C)C)c1nnc(-c2ccc(C(C)(C)C)cc2)s1	-21	5.2	46	nt	12%
C(#CCN1CCCCC1)COCc1ccccc1	-1	-0.1	-1	nt	8%
Cc1ccc(-c2nc(CS(=O)(=O)CC(=O)NC3CC3)c(C)o2)cc1	nt	-3.4	-1	nt	nt
O=C1CC(c2ccccc2)CN1Cc1ccccc1 (stereo unspecified)	-12	0.7	-8	7	-5%
Nc1nc(Cl)cc(Sc2ccc3ccccc3c2)n1	-5	1.9	-3	-22	9%
CC(C)(C)N(Cc1ccccc1)C(=O)COC(=O)CNC(=O)c1ccco1	nt	-1.4	7	nt	nt
CC(NC(=O)c1ccccc1SCC(=O)N1CCCC1)c1ccc(F)cc1 (stereo unspecified)	nt	1.6	-10	nt	nt
CC(C)c1ccc(N=Nc2c(O)[nH]c(=O)[nH]c2=O)cc1	nt	-1.8	-2	nt	-17%
Further entries follow:
SMILES	Arbovirus inh	RecA intein inh	Mtb betalactam	YopH PTP inh	Mtb H37Rv	others
CC(=O)Nc1ccc(-c2csc(NCc3ccco3)n2)cc1	9	1.2	-2	-16	11%
CCOC(=O)/C(C#N)=C/c1cn(CCC(=O)O)nc1-c1cccc(Br)c1	2	9.1	17	nt	-6%
Cc1cc(C)cc(NC(=S)NC(=O)CCN2C(=O)c3ccccc3C2=O)c1	-1	-2.9	-8	-12	0%
CN(C)c1cc[n+](Cc2c(Cl)cccc2Cl)cc1	10	2.5	-6	-11	-14%
Cc1cccc(-n2c(N)cc(=O)nc2SCC(=O)Nc2nnc(C)s2)c1	-5	-0.8	nt	-29	nt
COc1cccc(CNC(=O)C2CCCN(S(=O)(=O)c3c(C)[nH]c(=O)[nH]c3=O)C2)c1 (stereo unspecified)	3	-0.6	-2	-24	-4%
CCc1nc(SCC(=O)NCC2CCCO2)c2c(=O)n(C)c(=O)n(C)c2n1 (stereo unspecified)	nt	3.2	1	nt	nt
Cc1ccc(-n2c3nc(=O)[nH]c(=O)c-3cc3c(C)nn(-c4ccccc4)c32)c(C)c1	-17	-1.1	3	-19	-5%
Cc1cc2nc3c(c(C(F)(F)F)n2n1)CCCC3	5	-2.1	0	nt	2%
O=S(=O)(Nc1ncccn1)c1ccc(NS(=O)(=O)c2cccc(Cl)c2Cl)cc1	3	1.4	3	nt	6%
Cc1ccc(C2CC(=O)c3cnc(N4CCN(c5ccccc5)CC4)nc3C2)cc1 (stereo unspecified)	-10	-2.6	-4	-16	-9%
O=C(COc1ccc(Cl)cc1Cl)Nc1ccc(-c2ccc(N3CCOCC3)nn2)cc1	nt	1.7	5	nt	nt
CC(=O)Nc1ccccc1NC(=O)c1cccc2ccccc12	10	0.8	2	-36	5%
COc1ccc(OC)c(N(CC(=O)Nc2cccnc2)S(=O)(=O)c2ccc(OC)c(OC)c2)c1	-1	1.5	3	-18	-5%
Cc1nc2c(-c3ccc(F)cc3)c(C)nn2c(C)c1CCC(=O)Nc1ccc(F)cc1F	nt	-6.6	-3	nt	-2%
O=C(NCCCN1CCOCC1)c1cc2c(=O)[nH]c3ccccc3c2s1	-2	-5.2	-4	-17	nt
Cc1ccc(-c2nc(C)sc2CC(=O)Nc2cccc(C)c2C)cc1	3	-4.1	-3	10	1%
CCOC(=O)c1cc(C(=O)OCC)cc(-n2c(C)cc(C(=O)CN3CCOCC3)c2C)c1	3	4.1	90	9	2%
COc1ccc(CC(=O)Nc2ccc(C#N)c(Cl)c2)cc1S(=O)(=O)N1CCOCC1	nt	0.8	-2	nt	nt
Cc1cc(NC(=O)C23CC4CC(C2)CC(n2cnc([N+](=O)[O-])n2)(C4)C3)no1	5	-5.1	-2	nt	3%
Cc1ccc(NC(=O)/C(=C\c2ccccc2)NC(=O)/C=C/c2ccccc2)cc1	13	-4.6	4	-16	-2%
COc1ccc(CN(Cc2cc3cccc(C)c3[nH]c2=O)C(=O)N(C)C)cc1	0	3.3	-3	-33	-9%
C=C1CCN(C(CC(C)C)C(=O)OC)S(=O)(=O)c2ccccc21 (stereo unspecified)	nt	2.4	-10	nt	-12%
O=C(Cc1ccccc1)N/N=C\c1ccc(Br)o1	3	nt	nt	-19	-6%
COc1ccc(C2(C#N)CCN(C)CC2)cc1	4	2.1	-2	-41	-2%
Continuation.
SMILES	Arbovirus inh	RecA intein inh	Mtb betalactam	YopH PTP inh	Mtb H37Rv	others
Cc1ccc(Cl)cc1N1CCN(C(=S)NCc2ccco2)CC1	5	nt	-3	nt	16%
COCCCNC(=S)N1CCN(C(c2ccccc2)c2ccccc2)CC1	nt	-1.4	-1	nt	nt
O=C(c1noc2c1CCCC2)N1CCN(Cc2ccccc2)CC1	9	-1.8	-17	-35	-9%
Cc1ccc(NCCc2ccc(C)nc2)cc1	-8	-1.1	-2	12	1%
CCN(CC)C(=O)c1[nH]cnc1C(=O)N[C@@H](C)C(=O)OC(C)(C)C	1	-3.0	-2	nt	0%
Cc1cc(C)nc(-n2nc(C)cc2NC(=O)CN2CCCC2)n1	7	-0.1	-1	nt	8%
O=C(CSc1nnnn1C1CCCCC1)N1c2ccccc2Sc2ccccc21	6	2.1	55	4	-1%
O=C(Oc1ccccc1)c1ccc(NC(=O)c2ccco2)cc1	8	3.6	100	-19	?
NC(=O)c1ccccc1NC(=O)CSc1cn[nH]n1	nt	-3.3	1	nt	nt
CCN(CC)S(=O)(=O)c1cc(C(=O)N(C)CC(=O)Nc2ccc(Cl)cc2)ccc1Cl	-4	0.9	6	-21	8%
O=C(c1ccc(S(=O)(=O)N2CCCCC2)cc1)N1CCCc2ccccc21	2	3.1	34	-12	-10%
CCCC#Cc1ccc2c(c1)COc1c3ccccc3nn1-2	nt	10	97	nt	nt
Cc1ccc(C(=O)N(c2c(C)n(C)n(-c3ccccc3)c2=O)C(C)C)cc1	15	-2.4	-1	-18	-3%
O=C1NC(=O)C(=Cc2coc3ccccc3c2=O)C(=O)N1	6	-2.7	26	nt	3%
Fc1ccc(N2CCN(Cc3c[nH]c4ccccc34)CC2)cc1	nt	1.4	3	nt	8%
CCCCn1c(-c2nonc2N)nc2ccccc21	1	5.1	6	-133	-10%
Cc1ccc(/C=C/S(=O)(=O)N2CCC(C(=O)O)CC2)cc1	11	nt	8	-30	-11%
O=C(COC(=O)Cc1c(Cl)cccc1Cl)Nc1ccc(OC(F)(F)F)cc1	-2	-0.7	-3	-5	8%
Nc1nnc(SCC(=O)N2CCc3ccccc32)n1-c1ccccc1	-3	1.4	?	3	-1%
CCCN1CCC(=O)N([C@H](CSc2ccccc2)Cc2ccccc2)CC1	nt	2.2	-9	nt	nt
CCC/C(=N\NC(=O)C1CC1)c1ccccc1	nt	-1.5	-6	nt	nt
CCn1c2ccccc2c2nnc(NN)nc21	-6	-1.9	-2	-27	-7%

Structures shown so far with a nitro group on carbon, in the order listed:
SMILES	Arbovirus inh	RecA intein inh	Mtb betalactam	YopH PTP inh	Mtb H37Rv	others
O=C(Cn1cnc([N+](=O)[O-])c1)c1ccc(Cl)cc1	nt	-0.4	-1	nt	nt
O=C(NC(=S)Nc1ccccc1N1CCOCC1)c1cccc([N+](=O)[O-])c1	nt	11	-2	nt	nt
CC(=O)N1N=C(c2cccc([N+](=O)[O-])c2)OC1c1ccccc1Cl (stereo unspecified)	-9	0.8	-13	-52	-12%
CC(=O)Nc1ccc(OC(=O)c2ccc(Br)c([N+](=O)[O-])c2)cc1	-3	16	95	nt	18%
Cc1cc(NC(=O)C23CC4CC(C2)CC(n2cnc([N+](=O)[O-])n2)(C4)C3)no1	5	-5.1	-2	nt	3%
